Screening data (PubChem)
Hedgehog cleavage: Drosophila hedgehog isoform A inhibitors, primary screen, biochemical, plate reader, single concentration (AID 588832). 8,000 tested, under 10 active. Biochemical plate reader assay, Hedgehog inhibition; stronger effect = higher value. inhibition, % at 30.3 µM; in the data active = inhibition from about 57%;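 also: 0% = neutral control wells and 100% = positive control wells; cholesterol-driven self-cleavage of fly hedgehog protein by fluorescence polarization; read one hour after cholesterol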
* marks the source's active call; other numbers are inactive results. These rows are one share of the data; count on the stated rates, not on these rows.

Hedgehog cleavage,SMILES
7,Cn1c(=O)c(=O)n(C)c2cc(S(=O)(=O)CCC(=O)NCc3ccccc3)ccc21
2,CSc1oc(-c2ccco2)nc1S(=O)(=O)c1ccc(Br)cc1
12,CCOC(=O)C1CCN(C(=O)Cn2cc3c(n2)CCC(C)C3)CC1 (stereo unspecified)
9,O=C(CCC(=O)N1CCOc2ccccc21)NCc1cccnc1
5,CC1=C(C(=O)N2CCCCC2)C2(CCC(C)CC2)OC1=O (stereo unspecified)
3,CCCc1cc(C(=O)Nc2sc3c(c2C#N)CCC3)no1
17,Cn1cccc1Cc1nnc(SCC(=O)NCC2CCCO2)n1-c1ccc(F)cc1 (stereo unspecified)
7,COc1cccc(N2CCN(C(=O)CCC(=O)N3CCOc4ccc(C)cc43)CC2)c1
4,CCCC(=O)Nc1nc2c(s1)COc1ccccc1-2
0,O=C(NCC1CCCO1)C(=O)N/N=C/c1ccc(OCc2ccccc2Cl)cc1 (stereo unspecified)

Quoted from the listing.
Reading of CC1=C(C(=O)N2CCCCC2)C2(CCC(C)CC2)OC1=O (stereo unspecified) under Hedgehog cleavage: 5
Reading of CCOC(=O)C1CCN(C(=O)Cn2cc3c(n2)CCC(C)C3)CC1 (stereo unspecified) under Hedgehog cleavage: 12
Reading of O=C(NCC1CCCO1)C(=O)N/N=C/c1ccc(OCc2ccccc2Cl)cc1 (stereo unspecified) under Hedgehog cleavage: 0

(cont.)
Hedgehog cleavage,SMILES
4,CCn1c(=NC(=O)CN2C(=O)CCC2=O)sc2c(OC)ccc(OC)c21
7,Cc1ccnc(N2C(=O)c3ccccc3C2O)c1 (stereo unspecified)
7,CCOC(=O)c1ccc(N=c2sc(C(=O)OC)cc(=O)n2Cc2ccc3c(c2)OCO3)cc1
15,O=C(c1cnc2n(c1=O)CCS2)N1CCN(c2ccccc2F)CC1
3,Cn1c(=O)c2c(SCC(=O)N3CCCc4ccccc43)nc(C3CC3)nc2n(C)c1=O
9,CC(Oc1ccc2c3c(c(=O)oc2c1)CCC3)C(=O)NCC1CCC(C(=O)O)CC1 (stereo unspecified)
8,Cc1nnc(NC(=O)CSc2nc3c(c(=O)n2CCc2ccccc2)SC(C)C3)s1 (stereo unspecified)
3,O=C1c2c(O)cccc2Cc2cccc(O)c21
5,CSc1cccc(NS(=O)(=O)c2ccc3c(c2)NC(=O)C(C)C(=O)N3)c1 (stereo unspecified)
7,OCC1(O)OC[C@@H](O)[C@H]1O (stereo partly specified)

Next section
Hedgehog cleavage,SMILES
7,C[C@@H](C(=O)NC1CCCC1)N1C(=O)N2CCc3c([nH]c4ccccc34)[C@@]2(C)C1=O
2,COc1cccc(NS(=O)(=O)c2cc3c(cc2C)N(C(C)=O)CCO3)c1
4,O=C(CCC(=O)N1CCOc2ccccc21)NCCN1CCOCC1
-4,CCCCc1cc(=O)oc2cc(C)cc(OC(C)C(=O)NCC3CCC(C(=O)O)CC3)c12 (stereo unspecified)
3,COc1ccccc1NC(=O)C1=C(C)Nc2nnnn2C1c1cccc(C)c1 (stereo unspecified)
5,CCOc1ccc(N(CC(=O)Nc2ccc(OC)cc2)C2=NC3CS(=O)(=O)CC3S2)cc1 (stereo unspecified)
4,CCSc1oc(-c2cccs2)nc1S(=O)(=O)c1ccccc1
10,Cn1c(=O)c2c(nc(SCCCC#N)n2Cc2c(F)cccc2Cl)n(C)c1=O
10,COc1ccccc1CNC(=O)[C@H](NC(=O)C1CCN(C(=O)[C@@H](N)CCSC)CC1)C(C)C
5,O=c1c2c(O)cc(O)cc2oc2ccc(O)c(O[C@@H]3O[C@H](CO)[C@@H](O)[C@H](O)[C@H]3O[C@H]3O[C@H](CO)[C@@H](O)[C@H](O)[C@H]3O)c12

Structural class: the entries above containing a Cl atom.
Hedgehog cleavage,SMILES
0,O=C(NCC1CCCO1)C(=O)N/N=C/c1ccc(OCc2ccccc2Cl)cc1 (stereo unspecified)
10,Cn1c(=O)c2c(nc(SCCCC#N)n2Cc2c(F)cccc2Cl)n(C)c1=O

Next part.
Hedgehog cleavage,SMILES
5,COCCNC(=O)c1cc(-c2ccccc2OC)on1
9,Cc1ccc(-c2[nH]c3ccccc3c2SCCNC(=O)c2ccc(S(=O)(=O)N3CCOCC3)cc2)cc1
8,C=CCn1c(SCCCc2ccccc2)nc2c1c(=O)[nH]c(=O)n2C
4,COCCNC(=O)c1ccc(CS(=O)(=O)c2c(Cl)cccc2Cl)o1
21,C/C=C/COC(=O)c1[nH]c2c(c1C)C(=O)CC(c1ccco1)C2 (stereo unspecified)
7,O=C(NCCc1ccc(Cl)cc1)c1cccc(NC2=NC3CS(=O)(=O)CC3S2)c1 (stereo unspecified)
25,Cc1oc(-c2ccc(Cl)cc2)nc1CN1CCCC(C(=O)N2CCN(C(=O)c3ccco3)CC2)C1 (stereo unspecified)
17,Cc1ccc(C(=O)N2NC(c3ccccc3F)C3C(=O)N(c4cccc(C)c4)C(=O)C32)cc1 (stereo unspecified)
7,Cc1ccccc1NC(=S)NCc1ccc2c(c1)cc(C)n2C
6,CCCC(=O)NC(C)c1nc2ccccc2n1C(C)C (stereo unspecified)

The list goes on:
Hedgehog cleavage,SMILES
4,CCOC(=O)C1CCCN(c2cc(=O)n(-c3ccccc3Cl)c(=O)[nH]2)C1 (stereo unspecified)
-1,CC1CC(C)CN(c2nc3c(c(=O)n(C)c(=O)n3C)n2CCSc2nc3ccccc3o2)C1 (stereo unspecified)
29,O=C(NCC1CCCO1)c1ccc(CS(=O)(=O)c2c(Cl)cccc2Cl)o1 (stereo unspecified)
6,CCc1nc(SCC(N)=O)c2c(=O)n(C)c(=O)n(C)c2n1
0,O=C(CCC(=O)N1CCOc2ccc(Cl)cc21)NCCCN1CCC(Cc2ccccc2)CC1
17,COc1cccc(C2C(C(N)=O)=C(C)Nc3nc(CCCO)nn32)c1OC (stereo unspecified)
5,CCN(CC)CCCNC(=O)Cn1ncc2c(=O)oc3ccc(C)cc3c21
2,COc1ccc(N2Cc3cccc(C(=O)N4CCN(C(=O)c5ccco5)CC4)c3C2=O)cc1
3,CCC(C)(O)c1cnc(CC(C)C)c(=O)n1O (stereo unspecified)
5,COc1ccc(C(=O)NCc2cn3ccsc3n2)cc1OC

Additional compounds follow:
Hedgehog cleavage,SMILES
4,CN1CCN(C(=O)c2ccc3c(c2)N(Cc2ccccc2F)C(=O)c2ccccc2S3=O)CC1 (stereo unspecified)
5,CC(C)(C)OCC1CO1 (stereo unspecified)
12,O=C(NCCCn1ccnc1)C(=O)NCC1OCCN1S(=O)(=O)c1ccc(Cl)cc1 (stereo unspecified)
5,CCCc1cc(C(=O)Nc2cc(C)nn2-c2ccccc2)no1
3,Nc1nc(Cl)nc2c1ncn2C1OC(CO)C(O)C1O (stereo unspecified)
8,Cc1nc2sc(C(c3ccco3)N3CCC(C)CC3)c(O)n2n1 (stereo unspecified)
5,CCCn1cc(SCC(=O)Nc2nnc(C)s2)c2ccccc21
-11,O=C1Cc2ccccc2C(=O)N1CCc1ccccc1
15,Cn1cccc1Cc1nnc(SCC(=O)Nc2cccc(F)c2)n1CCc1ccccc1
-11,CC1(C)CC2(CC(C)(C)N1)OC(=O)N1CCc3ccccc3C12C (stereo unspecified)

Next section.
Hedgehog cleavage,SMILES
5,O=C(NCCc1ccc(Cl)cc1)C1CCN(C(=O)N2CCOc3ccccc32)CC1
8,O=C(NCc1ccccc1Cl)C1CCN(C(=O)c2sccc2-n2cccc2)CC1
5,N#Cc1c(NC(=O)c2cc(C3CC3)on2)sc2c1CCC2
5,COc1ccc(-c2cc(=O)oc3c(C)c(OC(C)C(=O)NCc4ccccn4)ccc23)cc1 (stereo unspecified)
4,O=C1c2ccccc2C(Nc2ccc(S(=O)(=O)N3CCOCC3)cc2)N1c1ccccn1 (stereo unspecified)
2,CCc1nnc(NC(=O)CSc2nnc(Cc3cccn3C)n2C)s1
-2,COc1ccc(CCNC(=O)c2cc(S(=O)(=O)N3CCOCC3)cn2C)cc1OC
0,O=C(O)CCc1ccc(-c2cccs2)n1-c1ccc(C(=O)O)cc1
11,COc1ccc(C2CC(c3ccccc3C)n3nc(N)nc3N2)cc1 (stereo unspecified)
7,CC(C)=CCc1c(O)cc2c(c1O)C(=O)CC(c1ccccc1)O2 (stereo unspecified)

Further compounds follow:
Hedgehog cleavage,SMILES
5,COc1ccc(OC)c(CCNC(=O)CCC(=O)N2CCOc3ccc(C)cc32)c1
4,Clc1ccc(CSc2nc3ccncc3[nH]2)cc1
6,Cc1cccc(CCNC(=O)c2cc(S(=O)(=O)N3CCCC3)cn2C)c1
8,CC(C)(C)c1ccc(S(=O)(=O)N2CCN(CCC#N)CC2)cc1
9,CCOC(=O)N1CCN(C(=O)c2ccc3c(SCC(=O)O)c4c(nc3c2)CCC4)CC1
0,O=C(NC1CCCCC1)C(=O)c1c(-c2ccccc2)[nH]c2ccccc12
6,CC1Cn2c(nnc2-c2ccc(F)cc2)S1 (stereo unspecified)
9,O=C(CSc1nnc(C2COc3ccccc3O2)o1)Nc1nccs1 (stereo unspecified)
-2,Nc1ncnc2c1ncn2C1OC(CO)C(O)C1N (stereo unspecified)
5,O=C(Cn1ncc2c(=O)oc3ccccc3c21)N1CCC(N2CCCCC2)CC1

(further entries)
Hedgehog cleavage,SMILES
7,COc1ccc(CCNC(=O)[C@H](C)N2C(=O)N3CCc4c([nH]c5ccccc45)[C@@]3(C)C2=O)cc1
2,CC(=O)c1ccc(O)c(CC=C(C)C)c1
4,O=C(O)c1ccccc1C(=O)O
-1,Cc1cccc(C(=O)NCCc2csc(C)n2)c1
-5,CC(=O)Nc1nc2cc3c(cc2s1)OCCO3
5,CCN1CCN(c2c(S(=O)(=O)c3ccc(C)c(C)c3)cnc3ccc(F)cc23)CC1
15,CCOc1ccc(C2CC(c3cccc(OC)c3)n3nc(N)nc3N2)cc1 (stereo unspecified)
5,CSC1=NCCN1C(=O)c1ccc(S(=O)(=O)N(C)C)cc1
7,Cc1cc(C)n2nc(CNS(=O)(=O)c3ccc(F)cc3)nc2n1
4,O=C(CSCC(=O)N1CCN(c2ccccc2)CC1)Nc1nc(-c2ccc(Cl)s2)cs1

Further structures follow.
Hedgehog cleavage,SMILES
9,CCC(C)[C@H](NC(=O)[C@H](Cc1ccccc1)n1c(=O)[nH]c2ccccc2c1=O)C(=O)NCC1CCC(C(=O)O)CC1 (stereo partly specified)
17,CC1CCCC(C)N1CCCNC(=O)c1cc2c(=O)n(C)c3ccccc3c2n1C (stereo unspecified)
5,CCOC(=O)c1ccc(NC(=O)c2cccc3c2C(=O)N(CC2CCCO2)C3)cc1 (stereo unspecified)
3,COc1ccc(N2Cc3cccc(C(=O)O)c3C2=O)cc1
5,CCOC(=O)N1CCN(C(=O)C2CCN(C(=O)c3cc4sccc4n3CC)CC2)CC1
2,CCn1ncc(C2=NOC(C(=O)Nc3c(C)n(C)n(-c4ccccc4)c3=O)C2)c1C (stereo unspecified)
-1,COc1ccc(-c2[nH]c(-c3ccccc3)nc2SCC(=O)NCc2ccco2)cc1OC
7,COc1ccc(NC(=O)C2CCN(c3nc(-c4ccc(OC)cc4)no3)CC2)cc1
23,COc1ccc(Nc2oc(COc3ccccc3F)nc2C#N)cc1
5,CCC(Sc1nc2c(c(=O)n1CC)SC(C)C2)C(=O)OC (stereo unspecified)

Next compounds
Hedgehog cleavage,SMILES
4,COc1ccc(NC(=O)COc2cc(O)c3c(c2)OC(C)(C)CC3=O)cc1
-38,Cc1csc2nc(CNC(=O)CCC(=O)O)cn12
4,COc1ccc(N(CC(=O)N2CCN(c3ccccc3)CC2)S(=O)(=O)c2c(C)noc2C)cc1
-4,CCOc1ccc(C2CC(c3cccc(C)c3)n3ncnc3N2)cc1 (stereo unspecified)
4,Cc1ccc(/C=C/c2onc(C)c2S(=O)(=O)N2CCC(C(=O)NC(C)(C)C)CC2)cc1
4,CCn1cc(SCC(=O)NCc2ccc3c(c2)OCO3)c2ccccc21
0,COc1ccc(OC)c2c1sc(=NC(=O)c1ccco1)n2C
9,Cc1ccc(Nc2cc(C)nc3ncnn23)c(Cl)c1
5,CC(C)=CCC/C(C)=C/COc1ccc2ccc(=O)oc2c1
7,COc1ccc2c(c1OC)C(=O)OC2N1C(=O)CC[C@H]1C(=O)Nc1ccc(F)cc1F (stereo partly specified)

Exported in markdown: part of the list above.
| smiles | Hedgehog cleavage |
| --- | --- |
| CC(C)=CCC/C(C)=C/COc1ccc2ccc(=O)oc2c1 | 5 |
| Cc1ccc(/C=C/c2onc(C)c2S(=O)(=O)N2CCC(C(=O)NC(C)(C)C)CC2)cc1 | 4 |
| Cc1ccc(Nc2cc(C)nc3ncnn23)c(Cl)c1 | 9 |

(more compounds)
Hedgehog cleavage,SMILES
8,Cc1nc(CNS(=O)(=O)c2ccccc2F)cs1
12,CCCOC(=O)C1C2C=CC3(CN(c4cccc(Cl)c4)C(=O)C13)O2 (stereo unspecified)
5,Cn1c(=O)[nH]c(=O)c2c1nc(CN1CCOCC1)n2CCCc1ccccc1
5,CC1=CC(=O)CC2C1(C)CCC(C)C2(C)CCC(C)CC(=O)O (stereo unspecified)
2,COCOc1ccc(-c2oc3c(C/C=C(\C)CCC=C(C)C)ccc(O)c3c(=O)c2OCOC)c(OCOC)c1
7,COc1ccc(OC)c(NC(=O)CSc2nnc(Cn3c(=O)sc4ccccc43)n2C)c1

Some of these compounds in order of the Hedgehog cleavage value, smallest number first:
structure	Hedgehog cleavage
Cc1csc2nc(CNC(=O)CCC(=O)O)cn12	-38
CCCC(=O)Nc1nc2c(s1)COc1ccccc1-2	4
Cn1c(=O)[nH]c(=O)c2c1nc(CN1CCOCC1)n2CCCc1ccccc1	5
CCc1nc(SCC(N)=O)c2c(=O)n(C)c(=O)n(C)c2n1	6
O=C(c1cnc2n(c1=O)CCS2)N1CCN(c2ccccc2F)CC1	15
Cc1oc(-c2ccc(Cl)cc2)nc1CN1CCCC(C(=O)N2CCN(C(=O)c3ccco3)CC2)C1 (stereo unspecified)	25
